# NPYLR7 ag – mosquito NPYLR7 agonism; hit rate 0.15% among 270,000; activation, % at 10 µM; HEK293T NPYLR7/Galpha15, GCaMP6s calcium fluorescence; in the data active = activation above about 40%;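 also: 0% = vehicle and 100% = reference agonist at the receptor; some compounds past the cut are filed as inactive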
# NPYLR7 ag max-min – second read-out of NPYLR7 ag, no call of its own (marks repeat the call); activation, %; measured here: Max-Min RFU normalised activation; some inactives read as strong as hits;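 span of the calcium signal over five minutes; 0% = vehicle and 100% = native peptide agonist; compound fluorescence can raise it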
# * marks the source's active call; other numbers are inactive results; & = joins results of further samples. This is a subset. The share of hits here may be higher or lower than overall.
SMILES,NPYLR7 ag,NPYLR7 ag max-min
O=C1SC(Nc2ccc(Br)cc2)C(=O)N1c1ccccc1 (configuration not stated),85.5*,88.4*
CCCC(O)(CCC)c1ccc(CN(CCOC)Cc2ccsc2)o1,-3.3,5.7
COc1ccccc1CCN1CCCC(CN(C)C(=O)Cn2cnc3ccccc3c2=O)C1 (configuration not stated),12.1,1.8
CCCC1COCCN1Cc1ccc2ccccc2n1 (configuration not stated),11.7,8.6
NC(=O)CSCC(=O)NCCCc1ccc(Cl)c(Cl)c1,5.9,10.6
Cc1cc(C)c(NC(=O)C23CCC(C)(C(=O)C2)C3(C)C)c([N+](=O)[O-])c1 (configuration not stated),-0.5,-3.6
COC(=O)C1=C(C)N(C)C(C)=C(C(=O)OC)C1c1cc(OC)ccc1OC,-4.2,-2.9
CCCC(=O)N1CCC1(C)C(=O)NS(=O)(=O)c1ccccc1 (configuration not stated),-2.1,-7.7
Cc1[nH]c2ccccc2c1C(=O)C(=O)N1CCN(c2ccc([N+](=O)[O-])cc2)CC1,1.4,0.2
CCCC(C)n1[nH]c(=O)c2c(C)cc(=O)[nH]c21 (configuration not stated),0.4,-1.2
Cc1ccc(NC(=O)C2(C)CCN2C2Cc3ccccc3C2)cc1 (configuration not stated),11.6,4.3
CCN(CC)c1cc(N2[C@@H]3CC[C@H]2CC(O)C3)nc(N)n1 (some centres not stated),-7.9,-11.2
CCC(=O)N=C(c1ccccc1)c1ccccc1,9.3,5.3
O=C(NCCc1ccccc1)C1CC(=O)N(CCc2ccccc2)C(=Nc2ccc(F)cc2)S1 (configuration not stated),-16.5,-21.0
CCCCn1c(C(=O)Nc2ccc(Cl)cc2)cc2c(=O)n(C)c(=O)n(C)c21,-0.2,-2.2

# Another view of part of the listing above:
# Results follow in this order: NPYLR7 ag, NPYLR7 ag max-min
- CCCC(=O)N1CCC1(C)C(=O)NS(=O)(=O)c1ccccc1 (configuration not stated)
    -2.1, -7.7
- CCCC1COCCN1Cc1ccc2ccccc2n1 (configuration not stated)
    11.7, 8.6

# More compounds follow.
SMILES,NPYLR7 ag,NPYLR7 ag max-min
O=C(NCC1CCCO1)c1coc(CN(Cc2ccc(F)cc2)Cc2ccccc2C(F)(F)F)n1 (configuration not stated),21.2,27.5
O=C(Nc1ccc(F)cc1)c1ccc(CSc2nnc(-c3ccco3)n2-c2ccccc2F)cc1,1.5,1.0
Cc1ccc(C(=O)Nc2cccc(S(=O)(=O)N(C)C3CCCCC3)c2)o1,6.7,6.4
CCN1C(=Cc2cc(C)[n+](CC3CCCO3)c(C)c2)Sc2ccccc21 (configuration not stated),123.0*,180.2*
O=C(CN(Cc1ccco1)C(=O)c1cccc(Br)c1)Nc1cc(-c2ccccc2)nn1-c1ccccc1,-7.3,-17.0
CCCCNC(=O)C1(C)CCCCN1C(=O)c1ccc2c(c1)CCO2 (configuration not stated),5.9,5.0
COc1ccc(NC(=O)c2ccc(-n3nc(-c4cccc(C(F)(F)F)c4)cc3N)cc2)cc1Cl,-7.4,-14.4
CCCN(CC(=O)N(Cc1cccn1C)C1CC1)C(=O)Nc1ccc(F)cc1F,-2.5,2.3
CCOc1ccc(NC(=O)N2CCC3(CC2)NC(=O)c2ccc(Cl)cc2N3)cc1,0.0,5.6
COCC(=O)N1CCN[C@H](C(=O)N[C@H]2CCCNC2=O)C1,-5.1,-7.8
C(=NCCC12CC3CC(C1)CC(CCN=Cc1ccncc1)(C3)C2)c1ccncc1,7.2,12.4
CSc1ccc(CN2CCN(C3CCN(C(C)C)CC3)C(CCO)C2)cc1 (configuration not stated),3.1,-11.3
CN1CCN(Cc2cn[nH]c2C2CCCCC2)CC1C(=O)O (configuration not stated),6.0,5.0
COc1cccc(C2CCCN2C(=O)Nc2ccccc2SC)c1 (configuration not stated),11.0,9.4
CCN(CC)C(=O)N1CCN(C(=O)c2ccccc2SC)CC1,-3.0,-2.3

# The final 6 entries of the part before are carried over, then new ones follow.
SMILES,NPYLR7 ag,NPYLR7 ag max-min
COCC(=O)N1CCN[C@H](C(=O)N[C@H]2CCCNC2=O)C1,-5.1,-7.8
C(=NCCC12CC3CC(C1)CC(CCN=Cc1ccncc1)(C3)C2)c1ccncc1,7.2,12.4
CSc1ccc(CN2CCN(C3CCN(C(C)C)CC3)C(CCO)C2)cc1 (configuration not stated),3.1,-11.3
CN1CCN(Cc2cn[nH]c2C2CCCCC2)CC1C(=O)O (configuration not stated),6.0,5.0
COc1cccc(C2CCCN2C(=O)Nc2ccccc2SC)c1 (configuration not stated),11.0,9.4
CCN(CC)C(=O)N1CCN(C(=O)c2ccccc2SC)CC1,-3.0,-2.3
COC1CCN(C(=O)CCc2ccccc2)CC(=O)N(C)c2ccccc21 (configuration not stated),-1.4,6.2
CC(C)CCN1CCC(C(=O)Nc2cccc(-c3cscn3)c2)CC1,3.6,-1.1
CCOC(=O)C1=C(O)/C(=C\c2cccc(OCC)c2O)SC1=Nc1cccc(F)c1,11.3,8.7
COc1cccc(C2SCCN2C(=O)C2CCCC2)c1OC (configuration not stated),12.9,5.1
Cc1ccncc1NC(=O)C(=O)N1CCc2c(Cl)cccc2C1,-7.2,-8.0
CCOc1ccccc1C(=O)Nn1cnc2c(cnn2-c2ccccc2)c1=O,2.7,0.9
COc1ccc(CC(=O)N2CCOC(COCc3cccc(C(F)(F)F)c3)C2)cn1 (configuration not stated),30.7,25.7
CCc1ccc(S(=O)(=O)NCC2CCN(C3CCCC3)CC2)s1,-7.2,-13.4
CCCS(=O)(=O)N1CCN(c2cc(S(=O)(=O)N3CCCC(C)C3)ccc2OC)CC1 (configuration not stated),3.7,0.6
CCOC(=O)c1coc(N2CCOC(c3ccc(Cl)cc3)C2)n1 (configuration not stated),3.3,0.7
CC(C)OCC(O)Cn1c(=O)n(C)c2ccccc21 (configuration not stated),8.3,5.2
CC1CCC(C(C)C)C(OC(=O)COC(=O)c2cccs2)C1 (configuration not stated),6.7,5.2
O=C(CN(CC1CCCO1)C(=O)NC12CC3CC(CC(C3)C1)C2)N(Cc1ccc(F)cc1)Cc1ccco1 (configuration not stated),-1.7,6.2
N#Cc1ccc(Cl)cc1N1CCC(CS(N)(=O)=O)CC1,5.2,1.5
CC(C)=CC1C(C(=O)NS(=O)(=O)c2cnn(C)c2)C1(C)C (configuration not stated),-1.0,-2.9
CC(C)(C)Cc1noc2ncc(C(=O)N3CC4CC5CC(C4)CC3C5)cc12,4.0,-10.5
CS(=O)(=O)c1ccc(CNC(=O)c2ccoc2)cc1,3.3,3.1
CCN(Cc1ccc(CO)o1)Cc1c(C)nn(CC)c1C,0.2,1.7
COc1ccc(OC)c(-c2c(C)n([O-])c3c([n+]2=O)CCCCC3)c1,-3.2,-8.1
CS(=O)(=O)N1CCN(CCNC(=O)NCc2ccc(Cl)cc2)CC1,2.8,0.5
Cc1noc(C)c1CSc1nc2ccccc2c(=O)n1Cc1ccco1,-1.3,1.9
O=C(c1ccc(Cl)cc1)N(Cc1nccn1Cc1ccc(Cl)cc1Cl)CC1CC1,6.6,10.3
CCCN(C)c1cc(C)nc(SCc2cccc(C(=O)NCC)c2)n1,10.0,13.7
C=CCn1c(SCCO)nc2c([nH]c3ccccc32)c1=O,-1.8,-2.6
Cc1ccc(C(=O)NNS(=O)(=O)c2cn[nH]c2)cc1,0.9,-0.3
Cc1cc(C)n2nc(Sc3nc(C)nc4scc(-c5cccs5)c34)nc2n1,-3.2,-2.7
Cc1cc(NC(=O)c2cccc(F)c2)sc1C(=O)N1CCc2ccccc21,9.4,5.8
O=C(CN1CCN(c2ccccc2Cl)CC1)NCCc1ccccc1,-2.0,0.8
O=C(/C=C/c1ccccc1Cl)Nc1ccc(CC(=O)N2CCC(O)CC2)cc1,-11.6,-13.4
Cc1cc(C)n(CC(C)CNC(=O)C2Oc3ccccc3OC2C)n1 (configuration not stated),-2.0,-4.1
C=CCc1c(C)nc(N)[nH]c1=O,4.7,3.4
CCC(=O)C1=C(c2cccc([N+](=O)[O-])c2)N(C(=O)CC)n2cnnc2S1,3.2,0.4
O=c1[nH]c(CNCc2ccccc2)nc2sc3c(c12)CCC3,6.4,6.1
O=C(COc1ccc(Cl)cc1Cl)NCc1nnc(SCC(=O)Nc2nc3ccccc3s2)n1-c1ccccc1,-8.4,-7.0
CS(=O)(=O)Oc1ccccc1CN(Cc1ccc(F)cc1)C(=O)c1cccs1,20.2,29.4
CCOC(=O)N1CCN(C(=O)c2csc(CSc3nnc(Cc4ccccc4)n3-c3ccccc3OC)n2)CC1,-1.2,4.3
CC(NS(=O)(=O)c1ccc(F)c(Cl)c1)c1cccnc1 (configuration not stated),2.8,-1.6
O=C(O)CCn1ccc2cc(F)ccc21,-3.3,-4.8
CCCCn1c(=O)c2ccccc2n2c(SCC(=O)N(C)C)nnc12,-9.5,-10.8
CC(C)CN1C(=O)c2ccccc2NC12CCN(C(=O)c1cccc(N(C)C)c1)CC2,1.3,32.9
COCc1cc(C)nc(N/N=C\c2cc(Br)c(OCc3cccc4ccccc34)c(OC)c2)c1C#N,11.6,9.7
Cc1cc(N2CCCN(Cc3cnc(-c4ccco4)nc3)CC2)ccn1,-3.6,-11.2
CCOC(=O)C1(CCOC)CCCN(Cc2ccccn2)C1 (configuration not stated),5.7,4.1
CC(=O)c1cccc(NC(=O)N2CCN(CC(OCc3cccc(C)c3)c3ccc(Cl)cc3)CC2)c1 (configuration not stated),-1.7,10.9
Cc1ccccc1COc1cccn2c(=O)c(-c3cc(C)n(C)n3)c(C)nc12,15.2,15.2
O=C(CSc1nc2ccccc2[nH]1)NCCc1ccccc1,-0.9,-2.2
CCOC(=O)COn1c(=O)c(-c2ccc(OCC)cc2)[n+]([O-])c2ccccc21,-6.5,-11.3
Cc1ccc(OCC(=O)N2CCC(C(=O)Nc3ccc4c(c3)OCO4)CC2)c(C)c1,5.3,2.8
Cc1nc2ncccn2c1C(=O)NCCCc1nc2ccccc2n1C,2.4,1.5
CCc1c(CN2CCC(N3CCCCC3)CC2)csc1C,-1.2,-0.6
N#Cc1cccc(NC(=O)N2CCSC2c2cccc(OCc3ccccc3)c2)c1 (configuration not stated),-7.4,0.2
CC1(C(=O)Nc2ccc3c(c2)OCO3)CCN1C(=O)C/C=C/c1ccccc1 (configuration not stated),-5.4,-11.7
Cc1cc(S(=O)(=O)Nc2cccc(Cl)c2)ccc1-n1c(N)c(C#N)c2nc3ccccc3nc21,-8.6,-10.7
COc1cc(C=C2SC(=S)N(CCN3CCOCC3)C2=O)cc(OC)c1OC,-2.3,-5.6
Cc1ccc(NC(=O)c2c(N)n(/N=C\c3ccncc3)c3nc4ccccc4nc23)cc1,3.8,-2.7
CC(C)(C)c1ccc2c(c1)C(=O)C(=O)N2,2.2,0.3
CCc1nc(CS(=O)(=O)c2nc(C)c(C)n2CC(C)C)cs1,-2.3,-4.7
CCN(CC)CCn1ccnc1-c1cccc(O)c1,-0.2,-1.9
CCOC(=O)C1=C(C)N(CC)C(=O)NC1c1ccccc1 (configuration not stated),-4.5,-9.2
COc1ccc(CCN(C)C(=O)c2cc(-c3ccccc3F)nc3cc(C(C)(C)C)nn23)cc1OC,-3.3,3.4

# Carrying on:
SMILES,NPYLR7 ag,NPYLR7 ag max-min
Cc1ccc(C2NC(=O)N(C)C3=C2C(=O)N(CC2CCCO2)C3)c(C)c1 (configuration not stated),13.5,23.6
O=C(NCCSCc1ccccc1)c1cccnc1Nc1cccc(Cl)c1,-8.5,-11.4
Cc1nnc(SCC(=O)NCc2ccccc2Cl)c2c1cnn2-c1ccccc1,-13.2,-19.5
CSc1cccc(NC(=O)C(NC(=O)OCc2ccccc2)SC(C)C)c1 (configuration not stated),-2.6,-7.3
C=CCc1cc(-c2nccn2Cc2cccnc2)cc(OC)c1O,13.2,7.7
CC(C)c1nn(CC(=O)N2CCCc3ccccc32)c(=O)c2c1cnn2-c1ccc(F)cc1,8.5,6.8
CN1CCN(C(=O)C2CCN(c3ccnc(C(C)(C)C)n3)CC2)CC1,-0.3,0.4
CCN(CC)C(=O)C1CCCN(Cc2nc(-c3ccccn3)no2)C1 (configuration not stated),-1.3,-0.8
O=C(CSc1nnc(-c2ccc(Cl)cc2)n1-c1ccccc1)N/N=C\c1ccc(F)cc1,-0.8,-4.6
Cc1nnc(NS(=O)(=O)c2ccc(F)cc2C)s1,-18.7,-19.7
COc1ccc2[nH]c(C(=O)NC(C)c3cnn(-c4ccccc4C)c3C)c(C)c2c1 (configuration not stated),7.9&1.9,3.9&-1.5
O=C(Cn1ncccc1=O)Nc1ccccc1-c1ccccc1,-2.4,-3.4
c1ccc(COc2cccc(-c3nccn3Cc3cccnc3)c2)nc1,-3.4,-5.7
Cc1noc2nc(-c3ccccc3F)cc(C(=O)NCc3ccccc3F)c12,-5.2,-6.5
CCCCC(CC)CN1CC(=O)C(c2nc(C)cs2)C1=N (configuration not stated),1.9,40.3

# Sorted by heavy-atom count (ascending): part of the list above.
SMILES,NPYLR7 ag,NPYLR7 ag max-min
O=C(Cn1ncccc1=O)Nc1ccccc1-c1ccccc1,-2.4,-3.4
C=CCc1cc(-c2nccn2Cc2cccnc2)cc(OC)c1O,13.2,7.7
Cc1noc2nc(-c3ccccc3F)cc(C(=O)NCc3ccccc3F)c12,-5.2,-6.5
Cc1nnc(SCC(=O)NCc2ccccc2Cl)c2c1cnn2-c1ccccc1,-13.2,-19.5

# Further results follow.
SMILES,NPYLR7 ag,NPYLR7 ag max-min
CCN(CC)S(=O)(=O)c1ccc(C)c(NS(=O)(=O)c2ccc(F)c(F)c2)c1,15.0,6.8
COCCCN(Cc1ccc(C(C)(C)C)cc1)Cc1cccn1Cc1cccc(C)c1,41.4*,40.4*
COc1ccc(-n2nc(-c3ccc(Cl)cc3)cc2NC(=O)c2ccc(F)cc2)cc1,-4.1,-4.0
COCCN1C(=O)CC(NNC(=O)c2ccc(Br)s2)C1=O (configuration not stated),1.5,7.2
CC(C)Cn1c(CN2CCN(C(=O)c3ccco3)CC2)nc2c1c(=O)n(C)c(=O)n2C,2.3,1.0
Cc1ccc(NC(=O)C2(C)CCN2CCOc2ccccc2)cc1O (configuration not stated),4.0,0.2
Cc1ccc(S(=O)(=O)c2cnc(SCC(=O)Nc3ccccc3Cl)[nH]c2=O)c(C)c1,-0.3,-4.9
CC(=O)Nc1cc(NC(=O)c2ccc(C#N)cc2)ccc1F,4.4,4.3
CCc1cc2c(SCC(=O)c3cccs3)ncnc2s1,9.5,1.8
